Marburg entry inh – blocks Marburg virus binding to or entry into cells; Marburg virus pseudotyped entry inhibition, cell reporter; control for the full effect not named in the record; about a third of the inactives were read at about 46 µM; hit rate 1.8% among 300,000; Potency, µM (highest dose often 37.8 µM), without a hit: at the highest dose activity change, negative = inhibition, hits mostly inhibitors; active = well fitted inhibition curve with a large enough effect; inconclusive = small, poorly fitted or top-dose-only effect, or effect the other way; inactive = flat fitted curve, though single readings scatter; tested in HEK293 cells; about a fifth of its hits are not listed in these tables; note: % is set by controls: 0 for no effect and ±100 for the full control effect; luciferase read-out
NS1 inh – blocks influenza NS1 protein function. S. cerevisiae slowed by influenza A NS1, growth recovery by OD600. Potency, µM (doses to about 46.1 µM), for inactives: top-dose activity, positive = more growth. hit rate 0.4% among 270,000; note: actives are rising curves; nearly all actives have a fitted effect of over 50% in size
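Growth recovery, yeast-based: influenza A NS1 expressed in S. cerevisiae causes slow growth, and suppressors are detected by OD600. The parent strain without NS1 is used as positive control.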
SARS PLpro yeast – inhibitors of SARS-CoV papain-like protease in yeast. S. cerevisiae expressing SARS-CoV PLpro, growth rescue; control for the full effect not named in the record. AID 485353. Potency, µM (top dose mostly 32.9 µM), for the others: at the top dose activity, positive = growth rescue. hit rate 0.19% among 330,000; note: 0% is about no effect; nearly all actives have a fitted effect of over 55% in size; growth read by luminescence after 48 h
StopGo reporter – lowers the luciferase signal of an FMDV 2A StopGo reporter; hit rate 1.2% among 410,000; Potency, µM (top dose mostly 57.9 µM), inactives show at the highest dose signal change, negative = less light; human cells with a luciferase reporter of 2A StopGo recoding; control for the full effect not named in the record; active = well fitted falling curve with a large enough effect; inconclusive = small, poorly fitted or top-dose-only effect; inactive = no such curve, though single readings can be large or run the other way; tested in HEK293T cells; note: % is set by controls: 0 for no effect and ±100 for the full control effect; nearly all actives have a fitted effect of over 45% in size; luciferase light after 4 h
Cruzain noTriton – blocks cruzain activity in detergent-free assay; P25779; purified cruzain, Z-FR-AMC fluorescence, no detergent; Potency, µM, without a hit: max response, negative = inhibition, hits mostly inhibitors; hit rate 2.3% among 200,000; AID 1476; active = well fitted curve in the direction sought with a large enough effect; inconclusive = small, poorly fitted or top-dose-only effect, or another doubt; inactive = no such curve, though single readings can be large; an effect the other way counts as inactive or inconclusive;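 note: plate controls were enzyme without inhibitor for no effect and buffer without enzyme for full effect; nearly all actives have a fitted effect of over 40% in size; top concentration of the series not given in the record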
Target sequence (P25779 123-467 limits assumed): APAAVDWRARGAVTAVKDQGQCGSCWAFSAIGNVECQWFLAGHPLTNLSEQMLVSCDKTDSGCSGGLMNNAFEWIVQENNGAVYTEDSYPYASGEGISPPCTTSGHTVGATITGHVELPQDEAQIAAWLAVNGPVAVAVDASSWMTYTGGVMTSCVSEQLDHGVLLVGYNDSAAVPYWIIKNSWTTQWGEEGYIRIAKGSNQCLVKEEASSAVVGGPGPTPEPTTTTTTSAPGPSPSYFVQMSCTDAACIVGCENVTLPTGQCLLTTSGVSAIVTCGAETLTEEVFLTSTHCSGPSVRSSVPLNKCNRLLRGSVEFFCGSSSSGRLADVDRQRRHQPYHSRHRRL
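Purified cruzain at 1.5 nM, pre-incubated 15 min with compound at room temperature in 100 mM sodium acetate pH 5.5, 5 mM DTT, 0.00005% Triton X-100. Reaction started with 2 uM Z-FR-AMC; AMC fluorescence increase over 60 s gives rate.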
LASV entry inh – inhibitors of Lassa virus binding or cell entry | Lassa virus pseudotype entry inhibition, cell reporter; control for the full effect not named in the record | Potency, µM (titrated, usually from 37.9 µM), without a hit: at the highest dose activity change, negative = inhibition, most hits filed as inhibitors | hit rate 1.2% among 300,000 | AID 540256; active means well fitted inhibition curve with a large enough effect; inconclusive means small, poorly fitted or top-dose-only effect, or effect the other way; inactive means flat fitted curve, though single readings scatter; tested in HEK293 cells; note: % is set by controls: 0 for no effect and ±100 for the full control effect; nearly all actives have a fitted effect of over 50% in size; luciferase read-out
RE007 growth inh – less growth of the S. pombe RE007 Vpr strain. hit rate 0.21% among 360,000. S. pombe RE007 Vpr strain, BacTiter-Glo ATP luminescence, 24 h; control for the full effect not named in the record. Potency, µM (top dose mostly 92.2 µM), inactives show at the highest dose activity change, negative = less growth; active = well fitted falling curve with a large enough effect; inconclusive = small, poorly fitted or top-dose-only effect; inactive = no such curve, though single readings can be large or run the other way;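 note: % is set by controls: 0 for no effect and ±100 for the full control effect; nearly all actives have a fitted effect of over 50% in size; the assay follows cell death caused by Vpr and the record does not say whether a fall means rescue or toxicity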
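Fission yeast strain RE007, carrying one chromosomally integrated HIV-1 vpr copy, was seeded at OD 0.01 in PMG+AL medium with 23 nL pinned compound. After 24 h at 30 °C and 99% humidity, viability was read by BacTiter-Glo luminescence.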
Cruzain Triton – blocks cruzain activity in presence of Triton detergent; P25779; purified cruzain, Z-FR-AMC fluorescence, 0.01% Triton; Potency, µM, for inactives: max response, negative = inhibition, hits mostly inhibitors; hit rate 0.43% among 200,000; active = well fitted curve in the direction sought with a large enough effect; inconclusive = small, poorly fitted or top-dose-only effect, or another doubt; inactive = no such curve, though single readings can be large; an effect the other way counts as inactive or inconclusive;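 note: plate controls were neutral wells for no effect and buffer without enzyme for full effect; nearly all actives have a fitted effect of over 40% in size; top concentration of the series not given in the record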
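Cruzain (1.5 nM) preincubated 15 min at RT with compound in 100 mM sodium acetate pH 5.5, 5 mM DTT, 0.01% Triton X-100. Reaction started with 2 uM Z-FR-AMC; AMC fluorescence (ex 360/em 450 nm) change over 60 s gave rate.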
* marks the source's active call; other numbers are inactive results; ? = inconclusive; . = not tested or not shown; & = joins results of further samples; [ ] = another dose, or the depositor's remark. Unless noted, calls come from the whole dose curve; as a rule, active means well fitted rising curve with a large enough effect; inconclusive means small, poorly fitted or top-dose-only effect; inactive means no such curve, though single readings can be large or run the other way. Potency is the fitted concentration of half-maximal effect.

SMILES	Marburg entry inh	NS1 inh	SARS PLpro yeast	StopGo reporter	Cruzain noTriton	LASV entry inh	RE007 growth inh	Cruzain Triton
COc1ccc(CCNS(=O)(=O)c2ccc(OC)c(OC)c2)cc1OC	.	1%	18%	22%	.	.	1%	.
COC(=O)C(=C/C=C/c1ccco1)C(=O)OC	.	3%	0%	-4%	.	.	-1%	.
O=C(Nc1ccc(Cl)cc1)OCCn1nnnc1C(c1ccccc1)N1CCOCC1 (stereo unspecified)	?	-62%	-1%	4%	?	-29%	2%	1.2%
COc1ccc(NC(=O)Nc2c(C)n(C)n(-c3ccccc3)c2=O)cc1OC	-3%	-18%	1%	-18%	.	6%	3%	.
CCOc1cccc(-n2nnnc2-c2ccc(OC)cc2)c1	?	-5%	2%	-5%	-10%	?	-1%	-0.2%
CCOc1ccccc1NS(=O)(=O)c1ccc(-n2cccn2)cc1	.	-1%	2%	-15%	.	.	-7%	.
CC1=C(C(=O)OC(C)C)C(c2ccsc2)NC(=O)N1C (stereo unspecified)	-2%	1%	26%	-12%	12%	-3%	-1%	0.0%
CCCSCCCNC(=O)C1CCN(c2nc3ccccc3nc2C(F)(F)F)CC1	.	.	.	-24%	-1%	-10%[46.1 µM]	.	1.4%
COc1cc(NC(=O)C2CCCN(S(=O)(=O)c3ccc4c(c3)oc(=O)n4C)C2)cc(OC)c1 (stereo unspecified)	.	16%	0%	0%	?	.	-2%	0.0%
O=C(/C=C/c1cccs1)N1CCN(c2ccccc2)CC1	7%	-6%	0%	16%	.	18%	8%	.
COc1ccc(CCNC(=O)Oc2ccccc2)cc1OC	.	0%	1%	3%	.	.	-16%	.
C/C(=N\OCC(=O)Nc1ccc(OC(F)(F)F)cc1)c1ccc2c(c1)OCCO2	?	26%	-6%	-17%	15%	?	8%	-10%
CCOc1cc(C(=O)Nc2nnc(S(=O)(=O)N3CCOCC3)s2)cc(OCC)c1OCC	4%[46.1 µM]	3%	1%	25%	.	10%[46.1 µM]	1%	.
[N-]=[N+]=CC(=O)C(Cc1ccccc1)N1C(=O)c2ccccc2C1=O (stereo unspecified)	-4%	-35%	5%	?	-1%	-3%	0%	-9.2%
CCCc1nc2nc(C)c(NS(=O)(=O)c3ccc(CC(C)C)cc3)c(=O)n2[nH]1	3%&5%[46.1 µM]	24%	2%	-1%&-14%	-2%	9%	9%	-1.7%
O=C(NCC1CCCN1S(=O)(=O)c1ccccc1)c1cccc(Cl)c1 (stereo unspecified)	-17%	.	-6%	?	.	-3%	-21%	.
Cc1cccc(OCC(=O)N2CCN(C(=O)COc3ccc(Cl)cc3)CC2)c1	25%[46.1 µM]	2%	0%	-29%	.	.	0%	.
COc1ccc(Br)c2c1-c1nc(NC(=O)c3ccc(F)cc3)sc1C2	2%[46.1 µM]	.	.	-27%	-5%	15%[46.1 µM]	.	-3.6%
CC1=CC2=NC(=O)/C(=C\c3cc(C)n(-c4ccccc4)c3C)C(=N)N2O1	?	10%	24%	0%	15%	2%	-17%	-6.4%
COC(=O)Cn1c(=NC(=O)c2cc(OC)c(OC)c(OC)c2)sc2cc(OC)ccc21	-2%	9%	3%	-18%	?	-13%	3%	-24%
CCOC(=O)C1CCN(C(=O)Cn2cnc3sc(C)c(S(=O)(=O)N4CCOCC4)c3c2=O)CC1	13%[46.1 µM]	-15%	-9%	32%[activator]	.	5%	?	.
CCOC(=O)Cn1c(Br)nc2c1c(=O)[nH]c(=O)n2C	-3%	-2%	6%	.	-3%	13%	15%	1.6%
O=C(Cc1n[nH]c(=O)c2ccccc12)OCc1c(Cl)cccc1Cl	0.52µM*	3%	1%	-2%	.	0.63µM*	-12%	.
CN1C(=O)c2ccc(NC(=O)c3c(C(=O)O)cccc3[N+](=O)[O-])cc2C1=O	.	10%	0%	-7%	.	.	4%	.
CCOC(=O)N1CCC(NC(=O)Cn2ncc3c2-c2cc(C)ccc2OC3)CC1	1%	-8%	1%	-15%	?	.	8%	0.1%
CCCCCCCC/C=C\CCCCCCCC(=O)NCCc1ccc(O)c(O)c1	4.5µM*	-9%	.	?	13%&6%&-12%	9.2µM*	16%	-16%&-3.6%&7.5%
COc1ccc2oc(C(=O)OCC(=O)NC(=O)NC(C)C)c(C)c2c1	0%	-7%	10%	11%	-11%	8%	-1%[3.69 µM]	-7.5%
CC(=O)N1c2ccccc2N2C(c3c(C)c(C)cc(C)c3C)=NON12	.	-3%	-2%	-18%	.	.	10%	.
CCOc1ccccc1NC(=O)C1CCCN1S(=O)(=O)c1ccc2nc(-c3ccccc3)[nH]c2c1 (stereo unspecified)	.	.	.	-14%	?	?	.	-5.7%
O=C(O)Cn1ncc2c1-c1ccoc1CC2	.	5%	?	0%	-14%	.	-6%	0.9%
Cn1c(=O)[nH]c(=O)c2c1nc(Br)n2CCCSc1nc2ccccc2o1	8.2µM*	-12%	?	22µM*	16%	-18%	2%	-7.3%
O=S(=O)(c1ccc(C2CCCCC2)cc1)N1CCN(c2ccc(Cl)c(Cl)c2)CC1	-12%[46.1 µM]	.	.	-27%	-8%	19%[46.1 µM]	.	1.2%
CCCCOc1ccc(/C=C/C(=O)OCC(=O)c2c(N)n(C)c(=O)n(C)c2=O)cc1OCC	-10%[46.1 µM]	9%	1%	-15%	.	-7%	-8%	.
O=c1ncn(-c2ccc(F)cc2)c2ncccc12	10%	1%	10%	0%	3%	18%	-1%	-0.8%
COc1ccc(S(=O)(=O)NC2CC(C)(C)NC(C)(C)C2)cc1C(C)C	?	-11%	2%	45%[activator]	.	?	4%	.
COc1ccc(S(=O)(=O)Nc2ccccc2OC)cc1N=Nc1c(O)[nH]c(=S)[nH]c1=O	?	.	-27%	27%	.	?	-6%	.
C=CCn1c(N)cc(=O)nc1SC(CC)C(=O)Nc1ccc(C(C)=O)cc1 (stereo unspecified)	24%[46.1 µM]	15%	5%	14%	.	.	2%	.
Cc1ccc([N+](=O)[O-])cc1-c1ccc(/C=N/NC(=O)c2cc3c(ccc4ccccc43)o2)o1	22%	-1%	-4%	-15%	2%	14%	27%	1.1%
Cc1ccc(-c2nc(C#N)c(NCCN3CCCCC3)o2)cc1	?	2%	0%	19%	?	10%	-8%	-6.8%
CCN(CC)CCN1C(=O)c2ccccc2NC1c1ccc(N(C)C)cc1 (stereo unspecified)	-6%[46.1 µM]	-58%	-17%	3.2µM*	2%	-21%	-11%	5.8%
O=C(O)c1cc2ccc3ccccc3c2oc1=O	3%	-18%	-30%	-12%	25µM*	-1%	-1%	?
Cc1cc(C)n(-c2ccc(F)cc2)c(=O)c1C(=O)O	-2%	3%	1%	-10%	-3%	1%	6%	-0.5%
Oc1ccc(Br)cc1/C=N/n1cnc2ccccc21	17%	-61%	-12%	11%	?	-2%	-22%	-3.3%
CCOc1cc(/C=N\NC(=O)Cc2ccccc2)ccc1OCC(=O)Nc1ccc(C)c(C)c1	-17%	-7%	1%	-2%	-9%	?	-4%	1.1%
c1ccc2c(Nc3nnc(-c4ccncc4)s3)cccc2c1	-3%	0%	-27%	.	-10%	15%	-4%	-7.4%
Cc1nc(-c2ccc(C#N)cc2)cs1	.	-3%	1%	5%	.	.	-16%	.
COC(=O)Nc1nnc(COc2ccccc2)s1	-9%[46.1 µM]	2%	-5%	8%	.	-5%	-24%	.
CCN(C(=O)CSc1nc2n[nH]c(C)c2c(=N)n1-c1cccc(OC)c1)c1cccc(C)c1	.	.	.	?	?	-31%[46.1 µM]	.	-3.7%

Assay outcomes from PubChem.
